# Ecoli rRNA inh = inhibits bacterial ribosomal RNA function over humanized ribosomes | E. coli WT GFP vs humanized-ribosome RFP mutants, fluorescence, 24 h; hits give low values; DMSO median 0, no signal -100 | GFP signal change (wild-type ribosome), % (no concentration beside the values) | hit rate 1.6% among 350,000 | AID 720706;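 active means significant combined selectivity score with lowered wild-type GFP, culture density cut under 30%, mutant RFP and density less affected; inactive means any of these conditions unmet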; further: one replicate is shown; some compounds called inactive have numbers as strong as hits
# MLL AF4-AF9 inh = blocks AF4 peptide binding to human AF9; P42568; AlphaScreen, biotin-AF4 peptide binding to FLAG-AF9; inhibition, % at 10 µM; hit rate 0.47% among 350,000;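 active means every replicate reaching a set inhibition limit, whatever the replicate mean, cut at about 25% in these data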;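 further: 0% = plate neutral control median and 100% = total signal loss; the record names both 10 and 1 µM as test concentration; the first replicate is given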
# Target sequence (P42568 whole entry, looked up): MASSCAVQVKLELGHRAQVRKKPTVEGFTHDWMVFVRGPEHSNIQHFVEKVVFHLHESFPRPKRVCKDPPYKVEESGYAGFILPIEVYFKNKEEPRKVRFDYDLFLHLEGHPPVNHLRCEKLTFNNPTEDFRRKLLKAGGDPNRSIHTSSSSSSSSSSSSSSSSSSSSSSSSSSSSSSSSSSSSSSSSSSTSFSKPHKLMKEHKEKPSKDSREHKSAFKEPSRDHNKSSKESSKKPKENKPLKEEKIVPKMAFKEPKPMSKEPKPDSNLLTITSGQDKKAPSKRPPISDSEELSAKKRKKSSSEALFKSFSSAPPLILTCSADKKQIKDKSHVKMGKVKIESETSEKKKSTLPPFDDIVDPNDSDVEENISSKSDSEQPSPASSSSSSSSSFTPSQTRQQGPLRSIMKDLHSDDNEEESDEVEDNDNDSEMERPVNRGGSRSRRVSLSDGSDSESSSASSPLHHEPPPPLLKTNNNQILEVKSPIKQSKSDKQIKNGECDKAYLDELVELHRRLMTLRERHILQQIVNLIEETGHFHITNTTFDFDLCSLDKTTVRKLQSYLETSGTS
# FGF22 binding = FGF22 (human) thermal shift binding; hit rate 1.5% among 340,000; calls only at 9.99 µM; recombinant FGF22 thermal shift, SYPRO orange fluorescence; percent of sucrose octasulfate shift, DMSO zero; AID 651658;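 active means melting point raised past a set limit in the mean and every replicate; three in four hits are not shown here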
# Target sequence (Q9HCT0 whole entry, looked up): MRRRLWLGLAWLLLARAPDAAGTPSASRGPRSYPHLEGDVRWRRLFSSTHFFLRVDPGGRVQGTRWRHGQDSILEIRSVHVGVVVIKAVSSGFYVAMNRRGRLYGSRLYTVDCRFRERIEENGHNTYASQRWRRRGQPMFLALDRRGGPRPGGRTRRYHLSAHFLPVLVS
# Ecoli rRNA inh OD600 = second read-out of Ecoli rRNA inh, no call of its own (marks repeat the call); OD600 change, %; measured here: OD600 growth;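 optical density of the mix in the first replicate; 0 = DMSO median and -100 = no signal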
# Ecoli rRNA inh RFP = further read-out of Ecoli rRNA inh, marked with its call; RFP signal change, %; measured here: RFP humanized mutant strains;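 first replicate; 0 = DMSO median and -100 = no signal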
# * marks the source's active call; other numbers are inactive results; i = inactive; . = not tested or not shown; & = joins results of further samples. These rows are one share of the data. The share of hits here may be higher or lower than overall.
MLL AF4-AF9 inh,Ecoli rRNA inh OD600,Ecoli rRNA inh,FGF22 binding,Ecoli rRNA inh RFP,Molecule
1.7,12,-1,i,-1.2,COc1ccccc1S(=O)(=O)N1CC[C@@H]2[C@H]1c1cc(-c3ccc(F)cc3)ccc1N(C)[C@H]2CO
-1.8,6,1,i,0.3,C[C@H](CO)N1C[C@H](C)[C@@H](CN(C)Cc2ccc(Cl)c(Cl)c2)OCCCC[C@H](C)Oc2ccc(NC(=O)Nc3ccc(C(F)(F)F)cc3)cc2C1=O
3.3,4,13,i,0.6,COc1ccccc1C(=O)COC(=O)C1CCN(S(=O)(=O)c2ccccc2)CC1
0.3,2,-1,i,-3.2,COc1ccc(NC(=O)Nc2ccc3c(c2)C(=O)N([C@@H](C)CO)C[C@@H](C)[C@@H](CN(C)S(=O)(=O)c2ccccc2)OCCCC[C@H](C)O3)cc1
-3.0,0,0,i,0.8,COC(=O)CN1C(=O)CSc2ccc(S(=O)(=O)N3CCC(C)CC3)cc21
-9.2,10,5,i,0.2,C[C@@H]1CN([C@H](C)CO)C(=O)c2cccc(NC(=O)Nc3ccc(F)cc3)c2O[C@H]1CN(C)S(=O)(=O)c1ccc(Cl)cc1
1.1,11,4,i,4.6,CCCC(=O)Nc1ccc2c(c1)C(=O)N(C)[C@H]1CC[C@H](CC(=O)NCc3ccccc3)O[C@@H]1CO2
-1.0,4,2,i,-1.4,COc1ccccc1CNC(=O)C[C@H]1C[C@H]2c3cc(NC(=O)CN(C)C)ccc3O[C@H]2[C@H](CO)O1
1.9,7,7,i,-0.5,C[C@@H]1CN([C@H](C)CO)C(=O)Cc2cc(NS(=O)(=O)c3ccc(Cl)cc3)ccc2O[C@H]1CN(C)Cc1ccc(C(=O)O)cc1
-1.8,9,5,i,0.5,C[C@H](CO)N1C[C@H](C)[C@H](CN(C)C(=O)c2cnccn2)Oc2ncc(-c3ccccc3F)cc2C1=O
-1.2,9,6,i,-0.2,O=C(C[C@H]1CC[C@@H]2[C@H](COC[C@H](O)CN2CC2CCOCC2)O1)NCC1CC1
0.7,1,1,i,-5.6,O=C1Nc2ccccc2N(C(=O)c2c(F)cccc2F)C1c1nc2ccccc2[nH]1 (configuration not stated)
-1.3,2,1,i,-1.0,COc1ccccc1NC(=O)N[C@H]1CC[C@H](CC(=O)N[C@@H](C)c2ccccc2)O[C@H]1CO
-4.3,4,2,i,-0.6,C[C@@H]1CCCCO[C@@H](CN(C)C)[C@@H](C)CN([C@H](C)CO)C(=O)c2cc(NS(=O)(=O)c3ccc(F)cc3)ccc2O1
-3.3,6,0,i,-1.0,C[C@@H]1CN([C@@H](C)CO)C(=O)c2cc(C#C[C@@H](C)O)cnc2O[C@@H]1CN(C)C(=O)Cc1ccccn1
-2.0,12,1,i,-0.5,C[C@H]1CN([C@@H](C)CO)C(=O)c2cc(-c3cncnc3)cnc2O[C@H]1CN(C)C(=O)Nc1ccc2c(c1)OCO2
1.4,-22,4,i,-4.8,CN1CCN(S(=O)(=O)c2ccc(C(F)(F)F)cc2)C(c2ccccc2)C1 (configuration not stated)
11,-39,1,i,18,C[C@@H]1CN([C@@H](C)CO)C(=O)Cc2cc(NS(=O)(=O)c3ccc(F)cc3)ccc2O[C@H]1CN(C)Cc1ccc2c(c1)OCO2
-1.7,19,26,i,-4.1,COc1ccc(CN2C(=O)CCC2(C)c2nc3ccccc3[nH]2)cc1 (configuration not stated)
-0.9,-4,-5,i,-1.3,CCCCCCn1c(=O)n2n(c1=O)C[C@]1(OC(=O)NCc3ccccc3)CN(S(=O)(=O)c3ccc(C)cc3)C[C@]1(O)C2
1.9,-35,-14,.,-0.9,CCOC(=O)C1=CCN(S(=O)(=O)c2ccccc2F)C1c1cccc(F)c1 (configuration not stated)
-1.3&-5.3,7&12,6&4,i,-0.1&-1.2,Cc1noc(C)c1S(=O)(=O)Nc1ccc2c(c1)C(=O)N([C@H](C)CO)C[C@H](C)[C@@H](CN(C)C(=O)NC(C)C)O2
-0.8,11,-3,i,0.6,C[C@H](CO)N1C[C@H](C)[C@H](CN(C)S(=O)(=O)c2cccc(F)c2)Oc2ncc(C#CC3CC3)cc2C1=O
-2.4,-1,-1,i,-0.1,CCCNC(=O)[C@@H]1[C@@H](CO)[C@@H]2Cn3c(ccc(C4=CCCC4)c3=O)[C@@H]2N1CCC

# Reprinted from the part before: 2 entries; new compounds follow.
MLL AF4-AF9 inh,Ecoli rRNA inh OD600,Ecoli rRNA inh,FGF22 binding,Ecoli rRNA inh RFP,Molecule
-0.8,11,-3,i,0.6,C[C@H](CO)N1C[C@H](C)[C@H](CN(C)S(=O)(=O)c2cccc(F)c2)Oc2ncc(C#CC3CC3)cc2C1=O
-2.4,-1,-1,i,-0.1,CCCNC(=O)[C@@H]1[C@@H](CO)[C@@H]2Cn3c(ccc(C4=CCCC4)c3=O)[C@@H]2N1CCC
-0.9,3,-3,i,-5.4,N#C[C@@H]1[C@H](c2ccccc2-c2ccccc2F)[C@@H](CO)N1C(=O)C1CC1
-1.0,1,0,i,-1.5,C[C@H]1CN([C@@H](C)CO)C(=O)c2cc(-c3ccc(F)cc3)cnc2O[C@@H]1CN(C)C(=O)c1ccccn1
5.3,11,3,i,-1.2,Cc1ccc(S(=O)(=O)C=CS(=O)(=O)c2ccc(C)cc2)cc1
3.8,-57,-30,i,23,CC(C)CC#Cc1ccc2c(c1)O[C@@H](CN(C)C(=O)CC1CC1)[C@H](C)CN([C@@H](C)CO)S2(=O)=O
-0.9,-6,-2,i,0.3,C[C@@H]1CN([C@H](C)CO)C(=O)c2cc(NS(=O)(=O)c3ccccc3)ccc2O[C@H]1CN(C)Cc1ccncc1
-0.9,11,1,i,-0.5,CN(C)CC(=O)N1[C@H](CO)[C@@H](c2ccccc2)C12CN(CC1CCOCC1)C2
4.5,5,-2,i,-3.5,COc1ccc([C@H]2N[C@]3(CCCN(Cc4cccn4C)C3=O)[C@H]3C(=O)N(Cc4ccccc4)C(=O)[C@@H]23)cc1
-2.2,1,-3,i,0.3,C[C@H](CO)N1C[C@H](C)[C@H](CN(C)C(=O)Nc2ccc(C(F)(F)F)cc2)Oc2c(NS(C)(=O)=O)cccc2C1=O
6.7,2,4,i,-2.3,CNC[C@H]1OCCCC[C@@H](C)Oc2ccc(NC(=O)Nc3ccc4c(c3)OCO4)cc2C(=O)N([C@@H](C)CO)C[C@@H]1C
0.2,-64,-36,i,-0.6,Cc1ccc([C@H]2C(C(=O)O)=CC[C@@H](c3ccc(Cl)c(Cl)c3)N2S(=O)(=O)c2ccc(C)cc2)cc1
8.4,2,8,i,4.8,O=C(c1cnc(Cc2c[nH]c3ccccc23)c(I)c1)N1CCOCC1
5.3,-8,0,i,0.6,COc1ccc(NC(=O)Nc2cccc3c2O[C@@H](CN(C)Cc2ccc(Oc4ccccc4)cc2)[C@@H](C)CN([C@H](C)CO)C3=O)cc1

# Rewritten with bars between the fields: entries from further up.
compound | MLL AF4-AF9 inh | Ecoli rRNA inh OD600 | Ecoli rRNA inh | FGF22 binding | Ecoli rRNA inh RFP
C[C@H]1CN([C@@H](C)CO)C(=O)c2cc(-c3cncnc3)cnc2O[C@H]1CN(C)C(=O)Nc1ccc2c(c1)OCO2 | -2.0 | 12 | 1 | i | -0.5
N#C[C@@H]1[C@H](c2ccccc2-c2ccccc2F)[C@@H](CO)N1C(=O)C1CC1 | -0.9 | 3 | -3 | i | -5.4
C[C@@H]1CN([C@@H](C)CO)C(=O)Cc2cc(NS(=O)(=O)c3ccc(F)cc3)ccc2O[C@H]1CN(C)Cc1ccc2c(c1)OCO2 | 11 | -39 | 1 | i | 18
CN(C)CC(=O)N1[C@H](CO)[C@@H](c2ccccc2)C12CN(CC1CCOCC1)C2 | -0.9 | 11 | 1 | i | -0.5
C[C@H]1CN([C@@H](C)CO)C(=O)c2cc(-c3ccc(F)cc3)cnc2O[C@@H]1CN(C)C(=O)c1ccccn1 | -1.0 | 1 | 0 | i | -1.5

# Later entries:
MLL AF4-AF9 inh,Ecoli rRNA inh OD600,Ecoli rRNA inh,FGF22 binding,Ecoli rRNA inh RFP,Molecule
2.5,12,1,i,0.3,Cc1cccc(-c2ccc([C@H]3[C@H]4CN(Cc5cncnc5)CCCCN4[C@H]3CO)cc2)c1
0.5,-39,-33,i,-0.1,CN(c1ccccc1)c1ccc(/C=C(/CCC(=O)O)c2nc3ccccc3s2)cc1[N+](=O)[O-]
9.8,4,3,i,11,C[C@H](CO)N1C[C@H](C)[C@@H](CN(C)Cc2ccc(-c3ccccc3)cc2)Oc2ccc(NC(=O)CCCN(C)C)cc2C1=O
-0.4,2,2,i,0.6,O=C(CCN1CCCCC1)NCC[C@H]1CC[C@@H](NC(=O)C2CC2)[C@H](CO)O1
-2.4,11,11,i,0.7,COc1cccc(OC)c1C(=O)NCc1ccco1
-2.0,5,5,i,-2.3,COCC#Cc1ccc2c(c1)O[C@@H](CN(C)C(=O)C1CCOCC1)[C@H](C)CN([C@@H](C)CO)S2(=O)=O
9.0,-17,-3,i,5.3,COc1ccc(CN(C)C[C@H]2OCCCC[C@@H](C)Oc3ccc(NC(=O)Nc4ccc(C(F)(F)F)cc4)cc3C(=O)N([C@H](C)CO)C[C@H]2C)cc1
0.8,-17,-18,i,-2.6,O=C(C[C@H]1CC[C@@H]2[C@H](COC[C@H](O)CN2C(=O)Nc2ccc(Cl)cc2)O1)N1CCCCC1
-0.3,3,0,i,-1.2,COc1ccccc1-c1ccc2n(c1=O)C[C@H]1[C@H](CO)[C@@H](C(=O)N[C@@H](C)c3ccccc3)[C@@H]2N1C
1.3,1,-2,i,-0.2,CCC(=O)N1CC2(C1)[C@H](c1ccc(-c3ccccc3)cc1)[C@@H](CO)N2C(C)=O
-1.3,10,3,i,-0.8,O=C(O)[C@H]1[C@H](CO)[C@H]2Cn3c(ccc(-c4cncnc4)c3=O)[C@H]2N1C(=O)C1CCCCC1
-1.4,1,3,i,-4.6,C[C@H](CO)N1C[C@H](C)[C@H](CN(C)S(C)(=O)=O)OCc2ccccc2-c2ccccc2C1=O
13,5,5,.,10,N#CC1=C(N)N(c2ccc(F)cc2)C2=C(C1c1ccc(O)cc1)S(=O)(=O)CC2 (configuration not stated)
0.2,0,1,i,0.7,O=C(CCN1CCCCC1)NCC[C@@H]1CC[C@H](NC(=O)Cc2cccnc2)[C@@H](CO)O1
-5.0,3,3,i,-0.8,C[C@H]1CN([C@@H](C)CO)C(=O)c2cc(NC(=O)Nc3ccccc3)ccc2O[C@@H]1CN(C)S(C)(=O)=O
1.1,-31,-4,i,-0.3,Cc1cc(=O)n(C(C)Cc2ccccc2)n1C(C)Cc1ccccc1 (configuration not stated)
-4.4,9,2,i,-2.4,COc1ncnc2c1ncn2CCCNCc1ccco1
4.2,6,-2,i,-3.3,C/C=C/c1ccc2c(c1)O[C@H](CN(C)C(=O)c1ccc3c(c1)OCO3)[C@@H](C)CN([C@@H](C)CO)S2(=O)=O
9.9,-73,-44,i,1.0,C[C@@H]1CN([C@@H](C)CO)C(=O)Cc2cc(NS(C)(=O)=O)ccc2O[C@H]1CN(C)Cc1ccc(Oc2ccccc2)cc1
0.7,1,-5,i,-3.4,CN(C)C(=O)c1cccc(-c2ccc3c(c2)[C@H]2[C@H](CCN2C(=O)C2CC2)[C@H](CO)N3)c1
6.0,-20,-3,i,5.8,CC(C)CC#Cc1ccc2c(c1)O[C@H](CN(C)C(=O)Cc1cccnc1)[C@@H](C)CN([C@@H](C)CO)S2(=O)=O
2.8,-38*,-58*,i,-12*,O=C(Nc1cccc(Cl)c1)N1C[C@H]2[C@@H](c3ccccc31)[C@H](CO)N2CC1CCCCC1
-1.5,4,1,i,1.2,CN(C(=O)OC(C)(C)C)[C@H](Cc1ccccc1)C(=O)N[C@H]1CCCCNC1=O
1.5,-31,-12,i,-6.8,CCC(c1nc2ccccc2[nH]1)N(Cc1cccnc1)C(=O)c1cc(-c2ccccc2)on1 (configuration not stated)
-3.4,5,0,i,-3.0,C[C@H]1CN([C@@H](C)CO)C(=O)c2cc(-c3cccnc3)cnc2O[C@@H]1CN(C)C(=O)c1cccc(F)c1
0.9,-10,-4,i,-0.5,C/C=C/c1ccc2c(c1)O[C@@H](CN(C)C(=O)c1ccc(F)cc1)[C@H](C)CN([C@H](C)CO)S2(=O)=O
4.1,-30,-28,i,-7.4,CC(C)(C)n1nnnc1C(c1ccccc1)N1CCN(c2c(Cl)cncc2Cl)CC1 (configuration not stated)
0.4,10,7,i,0.7,COCC(=O)N[C@H]1C=C[C@@H](CC(=O)OC)O[C@@H]1CO
-5.6,-25,3,i,2.7,O=C(CN1CCOCC1)N1CCCCN2[C@H](CO)[C@@H](c3ccc(C#Cc4ccccc4)cc3)[C@@H]2C1
-2.2,3,2,i,-0.2,CCNC(=O)C1(C)CCCN(C(=O)c2ccnc(Cl)c2)C1 (configuration not stated)
1.2,2,0,i,-1.8,C[C@@H]1CCCCO[C@H](CN(C)S(=O)(=O)c2ccc(F)cc2)[C@@H](C)CN([C@@H](C)CO)C(=O)c2cc(NC(=O)c3ccncc3)ccc2O1
2.4,-1,-2,i,1.2,C[C@@H]1CN([C@H](C)CO)C(=O)c2cc(N(C)C)ccc2O[C@@H](C)CCCCO[C@@H]1CN(C)S(=O)(=O)c1ccccc1

# High-throughput results deposited in PubChem BioAssay by Broad Institute.
